Bioassay records (PubChem)
D2 ag: agonists of human D2 dopamine receptor (beta-arrestin). AID 624465. activation, % (no concentration beside the values). P14416. DiscoveRx PathHunter D2 beta-arrestin, luminescence, 90 min; 100% = 57 uM dopamine signal. actives 0.084% (n = 360,000); in the data active = activation above about 40%; inconclusive = about 15% to 40%; inactive = below about 15%; also: compound concentration not given in the record; the text of the record calls up to 30% inactive
Target sequence (P14416 whole entry, looked up): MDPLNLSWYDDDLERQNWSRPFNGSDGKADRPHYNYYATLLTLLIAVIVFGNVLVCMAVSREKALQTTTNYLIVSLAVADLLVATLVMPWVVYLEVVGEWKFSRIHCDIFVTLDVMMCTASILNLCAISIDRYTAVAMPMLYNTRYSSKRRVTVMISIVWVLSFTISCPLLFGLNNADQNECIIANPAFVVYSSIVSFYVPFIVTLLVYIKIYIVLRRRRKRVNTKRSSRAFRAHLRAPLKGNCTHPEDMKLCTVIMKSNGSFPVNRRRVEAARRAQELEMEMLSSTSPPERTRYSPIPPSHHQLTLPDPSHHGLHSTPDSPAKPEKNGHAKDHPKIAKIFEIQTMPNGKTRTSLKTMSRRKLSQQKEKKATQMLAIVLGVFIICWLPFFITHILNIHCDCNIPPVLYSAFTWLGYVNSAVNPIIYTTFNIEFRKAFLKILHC
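Agonist mode: compounds alone added to overnight-plated D2 PathHunter cells for 90 min at 37 C, with 57 uM final dopamine (EC100) defining full response. Beta-arrestin recruitment detected by chemiluminescent reagent, read after 1 h at ambient temperature.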
TRPML1 blocker: inhibitors of human TRPML1 channel; Q9GZU1; TRPML1-inducible cells, Ca2+ dye fluorescence, FDSS; hits give low values; inhibition of EC80 agonist-evoked calcium signal; activity change, negative = inhibition, % (test concentration not listed); actives 0.02% (n = 390,000); AID 624415; in the data active means activity change below about -50%; inconclusive means about -30% to -50%; inactive means above about -30%;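 also: stimulus is agonist 54-4 at its EC80 concentration; % is scaled to controls: 0 for no effect and ±100 for the full control effect; compound concentration not given in the record; the text of the record puts the active cut at -80%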
Target sequence (Q9GZU1 whole entry, looked up): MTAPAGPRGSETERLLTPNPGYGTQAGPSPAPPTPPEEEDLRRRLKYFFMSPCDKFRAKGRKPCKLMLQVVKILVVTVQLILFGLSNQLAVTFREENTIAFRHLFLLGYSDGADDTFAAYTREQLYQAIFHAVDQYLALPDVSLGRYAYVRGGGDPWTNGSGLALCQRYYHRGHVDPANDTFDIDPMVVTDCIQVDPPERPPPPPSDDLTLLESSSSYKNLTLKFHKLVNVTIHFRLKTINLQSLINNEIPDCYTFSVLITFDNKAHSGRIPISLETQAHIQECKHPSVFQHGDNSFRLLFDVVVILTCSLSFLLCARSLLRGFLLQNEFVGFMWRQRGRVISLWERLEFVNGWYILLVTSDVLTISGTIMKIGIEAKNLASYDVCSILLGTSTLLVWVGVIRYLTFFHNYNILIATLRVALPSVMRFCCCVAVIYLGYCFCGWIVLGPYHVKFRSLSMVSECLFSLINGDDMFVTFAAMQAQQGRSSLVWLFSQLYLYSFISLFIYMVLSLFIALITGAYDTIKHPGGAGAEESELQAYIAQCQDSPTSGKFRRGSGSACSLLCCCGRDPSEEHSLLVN
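Tet-induced TRPML1-DL cells loaded with Ca8 no-wash calcium dye were read kinetically on FDSS. Compound addition was followed by EC80 agonist 54-4 (4 uM final); inhibition was read over 110 s.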
CtBP-E1A blk: CtBP/E1A binding inhibition. AlphaScreen GST-E1A/His-CtBP binding, 1536-well; hits give low values; control for the full effect not named in the record. activity change, % (concentration not given with the values). actives 0.49% (n = 340,000). AID 651724; in the data active means activity change below about -65%; inconclusive means about -30% to -65%; inactive means above about -30%; also: % is scaled to controls: 0 for no effect and ±100 for the full control effect
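In 5 uL wells, 23 nL compound meets equimolar GST-E1A and His-CtBP (5X stock 125 nM each) for 2 h, 37 °C. Beads (5X, 50 ug/mL) then 1 h, 37 °C, dark.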
Six1-Eya2 blk: blocks human Six1 binding to Eya2 | AlphaScreen GST-Six1/His-Eya2 binding, biochemical; hits give low values; control for the full effect not named in the record | activity change, % (no concentration beside the values) | actives 0.56% (n = 360,000); in the data active = activity change below about -65%; inconclusive = about -30% to -65%; inactive = above about -30%; also: % is scaled to controls: 0 for no effect and ±100 for the full control effect; compound concentration not given in the record
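Compounds are tested against tagged Six1 and Eya2 proteins bridged by glutathione donor and nickel acceptor beads; after a one-hour incubation at 37 °C without light, AlphaScreen emission is recorded.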
TRPML1 ag: human mucolipin-1 channel agonism; Q9GZU1; TRPML1-expressing cells, Ca2+ dye fluorescence, FDSS; host cell line not named in the record; reference of the full effect not given here; activation, % (no concentration beside the values); actives 0.12% (n = 410,000); AID 624414; in the data active = activation above about 50%; inconclusive = about 30% to 50%; inactive = below about 30%; also: 0% is about no effect; the text of the record puts the active cut at 80%
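In this qHTS format, compounds were pin-transferred onto Ca8-dye-loaded TRPML1-DL cells induced with Tet overnight, and intracellular Ca2+ fluorescence was recorded kinetically for 110 s after a 10 s baseline. A subsequent 4uM final 54-4 (EC80) addition followed by a second 110 s read served as the antagonist phase.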
PINK1 expr mod: PINK1 expression modulation; PINK1 immunofluorescence, high-content cytometry, 24 h; Potency, µM (titrated, usually from 76.6 µM), without a hit: at the highest dose activation (PINK1 increase), actives largely listed as activators; actives 0.2% (n = 410,000); AID 624263; active = well fitted activation curve with a large enough effect; inconclusive = small, poorly fitted or top-dose-only effect; inactive = flat fitted curve, though single readings scatter; cell line not stated here;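 also: potency is read from the fitted curve at half-maximal effect; % of control where 0% means no effect; nearly all actives have a fitted effect of over 65% in size; a mitochondrial uncoupler was the plate control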
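Fluorescence from anti-PINK1 antibody, together with nuclear and cell stains, was scanned on a laser-scanning cytometer. Before staining, stable-line cells were incubated 24 hours with compounds at 5 concentrations; primary antibody 12 h at 10 degrees C.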
Starred values were filed as active, the others as inactive; · = no result given; & = joins results of further samples; [ ] = another dose, or the depositor's remark.

SMILES | D2 ag | TRPML1 blocker | CtBP-E1A blk | Six1-Eya2 blk | TRPML1 ag | PINK1 expr mod
CCc1ccc(-n2c(SCC(=O)NC(C)CC)nc3n[nH]c(C)c3c2=N)cc1 (stereo not given) | · | 14 | · | · | 1.5 | 5.3%
Cc1ccc(CSc2ncnc3onc(C)c23)cc1 | 2.4 | -6 | 17 | 13 | -0.2 | -1.9%
c1ccc(CN2CCC(=NNc3nc4ccccc4[nH]3)CC2)cc1 | 3.1 | 5 | 3 | -16 | 1.6 | -1.5%
O=C(NC1CCCC1)c1cccc(Cl)c1 | -2.2 | -12 | 0 | 0 | -0.3 | 0.2%
COc1ccc(/C(N)=N/O)cc1O | -3.8 | 9 | 10 | 11 | -0.2 | 4.1%
CCCCc1nnc2c(N(C)S(=O)(=O)c3ccccc3)nc3ccccc3n12 | 5.4 | -4 | -2 | 3 | 1.9 | 11%
CCCC(=O)n1nc(-c2cccnc2)nc1NCc1ccc(OC)cc1 | 2.1 | -8&9 | 0 | -4 | 1.4&-0.3 | 2.1%&15%
Cn1c(CC(=O)Nc2ccccc2)nnc1SCCOc1ccccc1 | 0.6 | 3 | -2 | -7 | -0.1 | -0.7%
COc1ccc(-n2c(-c3ccco3)nc3c(cnn3-c3ccc(C)cc3)c2=O)cc1 | -5.1 | 20&2 | · | -5 | 1.3&-0.6 | 2.6%&3.6%
N[C@H]1C(O)O[C@H](CO)[C@@H](O)[C@@H]1O (stereo not given in full) | -5.6 | 22 | 10 | 2 | -0.1 | 1.1%
C[C@@H]1CN([C@@H](C)CO)C(=O)c2cc(NS(=O)(=O)c3ccc(Cl)cc3)ccc2O[C@H]1CN(C)Cc1ccncc1 | -1.8 | 3 | 7 | 3 | -0.1 | 2.3%
O=C1NC[C@@H](Cc2cccc3ccccc23)N(CCc2cc(C(F)(F)F)cc(C(F)(F)F)c2)C1=O | -2.6 | -13 | 4 | -1 | -0.9 | -1.0%
Cc1ccc(NC(=O)c2c(-c3ccccc3Cl)noc2C)nc1 | 1.9 | -5 | 6 | -1 | 0.2 | -0.3%
Cc1ccc(C(=O)O)c(C(=O)Nc2nc3ccccc3s2)c1 | -1.4 | -7 | 6 | 4 | -0.6 | 2.0%
CCSc1ncnc2c1oc1ccccc12 | -1.3 | 1 | 17 | 11 | 1.4 | 3.0%
CCc1cccc(-n2c(=O)c3cccnc3n2CC(=O)NCc2ccc(C)cc2)c1 | · | 14 | · | · | 2.1 | -0.2%
COc1cc(-c2cc(C(=O)NCCc3ccc(S(N)(=O)=O)cc3)c3ccccc3n2)cc(OC)c1OC | 2.4 | -25 | -3 | 1 | 1.3 | 9.2%
O=C(c1cc([N+](=O)[O-])ccc1N1CCCCC1)N1CCCCC1 | -3.2 | 8 | 8 | 4 | 0.1 | 2.1%[38.3 µM]
CCOc1ccccc1N1CCN(C(=O)Nc2cccc(Cl)c2)CC1 | -0.1 | -6 | -1 | 0 | 0.5 | 0.0%
COc1cc(Cl)c(C)cc1Nc1nc2ccccc2c2nnc(C)n12 | · | 26 | · | · | 1.2 | 0.5%

Quoted at random: four entries already listed
SMILES | D2 ag | TRPML1 blocker | CtBP-E1A blk | Six1-Eya2 blk | TRPML1 ag | PINK1 expr mod
CCSc1ncnc2c1oc1ccccc12 | -1.3 | 1 | 17 | 11 | 1.4 | 3.0%
COc1cc(Cl)c(C)cc1Nc1nc2ccccc2c2nnc(C)n12 | · | 26 | · | · | 1.2 | 0.5%
O=C1NC[C@@H](Cc2cccc3ccccc23)N(CCc2cc(C(F)(F)F)cc(C(F)(F)F)c2)C1=O | -2.6 | -13 | 4 | -1 | -0.9 | -1.0%
Cc1ccc(NC(=O)c2c(-c3ccccc3Cl)noc2C)nc1 | 1.9 | -5 | 6 | -1 | 0.2 | -0.3%

(list continues)
SMILES | D2 ag | TRPML1 blocker | CtBP-E1A blk | Six1-Eya2 blk | TRPML1 ag | PINK1 expr mod
O=C(CCc1nnc(CCCCc2ccccc2)o1)NCc1cc(F)ccc1F | -4.7 | -4 | 1 | 9 | 1.0 | 1.7%
CC(=O)c1cccc(NC(=O)/C(=C\c2cccnc2)NC(=O)c2ccc(C)cc2)c1 | -6.1 | -6 | 3 | 7 | 0.3 | -1.0%
CC(=O)c1cccc(-c2ccnc3c2CC(C(=O)NCc2ccc(N4CCN(C)CC4)cc2)O3)c1 (stereo not given) | -4.6 | -16 | -9 | -10 | -0.1 | -1.1%
Cn1c(=O)c2c(nc(OC3CCCC3)n2C)n(C)c1=O | 0.2 | -6 | 9 | 4 | -0.3 | 0.7%
CCCCOc1ccc(-c2nnn(CC(=O)NCCc3c[nH]c4ccccc34)n2)cc1 | 0.8 | -17 | -16 | -12 | -0.3 | 8.8%
Brc1ccc(OCc2cn3ccccc3n2)cc1 | -0.5 | 2 | 0 | 16 | -0.4 | 3.1%
CC(C)(C)NS(=O)(=O)c1ccc(NS(C)(=O)=O)cc1 | -2.5 | -15 | 10 | 0 | -0.3 | 4.3%[38.3 µM]
Nc1ccc(S(=O)(=O)NN=CC=Cc2ccccc2[N+](=O)[O-])cc1 | 10 | 57 | 4 | 7 | 0.3 | 4.9%
COc1cc2oc(=O)cc(CN3CCCCC3)c2cc1Cl | -6.1 | -23 | 4 | 1 | 0.3 | 0.4%
Cc1ccc(COn2nnc3ccc(S(=O)(=O)N4CCOCC4)cc32)cc1 | 1.2 | 2 | 7 | 2 | 4.6 | 1.5%
COc1ccc(-c2nnc(N)s2)cc1OC | -4.7 | 5 | -8 | -8 | -0.3 | -1.0%
O=C(COC(=O)C1CCC(=O)N1)Nc1ccccc1Br (stereo not given) | -1.4 | · | 1 | 3 | · | 1.1%
Cc1cc(C)c(S(=O)(=O)N(C)CC(=O)NCCCn2ccnc2)c(C)c1 | -0.6 | -8 | 10 | 2 | -0.5 | -0.7%
CCC(CC)C(=O)N(C)c1c(C)nc2c(OCc3ccc(Cl)cc3)cccn12 | 7.3 | · | -10 | -6 | -0.2 | 0.7%
CCO[C@H]1OC(C(=O)NCc2nc3ccccc3[nH]2)=C[C@@H](c2ccc(Br)cc2)[C@@H]1CCCO | -0.3 | 5 | · | -2 | 1.2 | 1.2%
Cc1cc(C)n(-c2nnc(C)n2/N=C/c2ccccc2O)n1 | -4.7 | 7 | -4 | 17 | 0.9 | -1.4%
CN(CC(=O)NCCc1ccccc1)S(=O)(=O)c1cnc[nH]1 | 1.3 | 6 | -11 | 1 | 0.0 | 0.3%
CCOC(=O)Cn1c(CN2CCc3ccccc3C2)nc2c1c(=O)n(C)c(=O)n2C | -6.7 | -7 | 0 | -1 | 0.0 | 0.4%
OCCN1CCN(c2ncnc3sc4c(c23)CCCC4)CC1 | 7.1 | 29 | · | -4 | 0.1 | -1.3%
Cc1cc(Nc2cc(Cl)ccc2C)n2nc(Cc3ccccc3)nc2n1 | · | 1 | · | · | -0.3 | 1.9%
COc1ccccc1N1CCN(C(=O)c2ccc(S(=O)(=O)N3CCCCCC3)cc2)CC1 | 1.4 | 8 | -2 | -6 | 2.1 | -0.5%
NNc1nc2sc3c(c2c(=O)[nH]1)CCc1ccccc1-3 | 1.8 | 8 | -14 | -5 | 0.9 | -2.8%
COn1c(=O)c(-c2cccc(Br)c2)[n+]([O-])c2ccccc21 | 3.9 | 23 | 8 | 4 | -0.4 | 0.4%
CC(C)OC(=O)C1C2C=CC3(CN(CC4CCCO4)C(=O)C13)O2 (stereo not given) | 1.7 | -12 | 2 | 6 | -0.2 | -0.3%
COc1cc(NC(=O)c2cc(-c3ccc(C)cc3)on2)cc(OC)c1OC | -3.0 | 3 | 9 | 1 | -0.3 | 1.6%
Cc1cccc(C(=O)Nc2ccc(S(=O)(=O)N(Cc3ccccc3)c3ccccc3)cc2)c1 | · | 21 | · | · | -0.4 | 2.2%
CCOC(=O)[C@]12CCC=C1N(Cc1ccc(Cl)cc1Cl)C(=O)[C@H](CC(=O)NCc1ccc(OC)c(OC)c1)C2 | · | · | 4 | -11 | 0.2 | 3.2%
Cc1c(NC(=O)c2ccc(Br)o2)cccc1C(=O)O | -1.9 | 6 | 4 | 0 | 1.7 | 20%[38.3 µM]
O=C(NCc1ccccn1)C(=O)NN=C1CCCCCCCCCCC1 | 3.1 | 2 | 3 | 2 | 0.7 | 18%
CCCc1nnc(SCC(=O)Nc2ccccc2F)o1 | 2.6 | -19 | -10 | -11 | 0.0 | 0.0%
CN1CCN(c2nc(-c3ccc(Br)cc3)nnc2-c2ccccc2)CC1 | -1.8 | -15 | -2 | -8 | 0.0 | 4.4%
COc1ccc(CN(CCO)CCO)cc1[N+](=O)[O-] | 2.0 | 0 | 13 | 10 | 2.1 | -1.7%
COc1ccc(C)cc1NC(=O)CSc1nnc2ccc(-c3ccncc3)nn12 | 1.2 | -9 | 0 | 1 | 0.5 | 0.0%
OCCNc1nc(N2CCCCC2)nc2ccccc12 | -1.0 | 7 | 1 | -5 | -0.2 | 0.2%
C/C(=N\O)C(=O)NCCN(C)C | 3.2 | -20 | 6 | 17 | 0.4 | 2.6%
Cc1ccc(N(C(=O)c2csnn2)C(C(=O)NC(C)(C)C)c2cccnc2)cc1 (stereo not given) | -0.5 | 13 | 11 | 8 | -0.2 | -0.2%
COc1ccc(O)c(CN2CCCC(N3CCc4ccccc4C3)C2)c1 (stereo not given) | 1.9 | 3 | -6 | -20 | -0.4 | -0.6%
Cc1ccc(-n2nc(C(=O)O)c(O)cc2=O)cc1 | 8.1 | 3 | 7 | 0 | -0.6 | 1.8%
COc1ccc(NC(=S)N(CCc2nc3cc(C)c(C)cc3[nH]2)Cc2cccnc2)cc1 | -2.3 | -8 | -5 | -2 | 0.9 | -2.3%[38.3 µM]
CCc1ccc(NS(=O)(=O)c2ccc3[nH]cc(C(=O)NCCCOC(C)C)c(=O)c3c2)cc1 | · | 19 | · | · | 1.9 | 3.7%
N#Cc1ccccc1CSc1nnc(-c2ccc(Br)cc2)o1 | · | 6 | · | · | 2.4 | 0.4%
Cc1cc(=O)[nH]c(SCC(N)=O)c1C#N | -1.2 | 12 | 0 | 6 | 17 | 1.6%
Cc1nonc1NCn1nnc2ccccc21 | -0.5 | 0 | -9 | 12 | -0.4 | -1.4%
Cc1cccc(NC(=O)CSc2nc3c(oc4ccccc43)c(=O)n2-c2ccccc2)c1C | · | -5 | · | · | 0.9 | 0.3%
CCCn1c(=O)c(F)cn(Cc2ccc(OC)c([N+](=O)[O-])c2)c1=O | -0.5 | 40 | -1 | -2 | -0.6 | 2.0%

Grouped by structure: the compounds so far containing a cyano group
SMILES | D2 ag | TRPML1 blocker | CtBP-E1A blk | Six1-Eya2 blk | TRPML1 ag | PINK1 expr mod
N#Cc1ccccc1CSc1nnc(-c2ccc(Br)cc2)o1 | · | 6 | · | · | 2.4 | 0.4%
Cc1cc(=O)[nH]c(SCC(N)=O)c1C#N | -1.2 | 12 | 0 | 6 | 17 | 1.6%
